From PubChem
UUG fidelity: modulators of start codon recognition fidelity in yeast | S. cerevisiae UUG-firefly luciferase reporter, luminescence/redox ratio | activity score, % at 18.7 µM | 0.13% of 350,000 active | AID 602363;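 active = replicate mean at a twofold rise or more, about +100% in these data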;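 note: firefly luciferase made from a UUG start codon reports start codon fidelity; reporter light over untreated wells divided by growth signal over untreated wells; some hits fall short of that in this replicate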
Env fusion inh: blocks HIV Env-driven cell-cell fusion; HeLa-JRFL Env/CEM21 cell fusion, luciferase; inhibition, % at 12.3 µM; 1.1% of 360,000 active;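 active = mean replicate inhibition score of at least 50 and every replicate individually at or above 50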;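 note: 0% = plate neutral controls and 100% = maraviroc near 300 nM; one replicate is shown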
* = called active by the depositor; & = joins results of further samples; [ ] = another dose, or the depositor's remark. Only part of the results is shown. The share of hits here may be higher or lower than overall.

Molecule | UUG fidelity | Env fusion inh
CCNC(=O)Nc1ccc2c(c1)C(=O)N(C)[C@@H]1CC[C@@H](CC(=O)Nc3ccccc3)O[C@H]1CO2 | 10 | -7[16.7 µM]
CC(C)C#Cc1ccc2c(c1)O[C@H](CN(C)C(=O)C1CCCCC1)[C@H](C)CN([C@@H](C)CO)S2(=O)=O | 12 | 7[16.7 µM]
COc1ccc(NC(=O)N(C)C[C@@H]2Oc3ccc(NS(=O)(=O)c4ccccc4)cc3C(=O)N([C@H](C)CO)C[C@H]2C)cc1 | -8 | -20[16.7 µM]
N#C[C@H]1[C@H](c2ccc(C3=CCCC3)cc2)[C@@H](CO)N1C(=O)c1cccc(F)c1 | 13 | 3[16.7 µM]
C[C@@H]1CN([C@H](C)CO)C(=O)c2cccc(NC(=O)C3CC3)c2O[C@@H]1CN(C)S(=O)(=O)c1ccccc1 | -3 | 20[16.7 µM]
COc1ccc(NC(=O)N(C)C[C@H]2OCCCC[C@@H](C)Oc3ccc(NC(=O)Nc4ccc5c(c4)OCO5)cc3C(=O)N([C@H](C)CO)C[C@@H]2C)cc1 | 10 | 16[16.7 µM]
CC(C)NC(=O)N(C)C[C@H]1Oc2ncc(C#CC3(O)CCCC3)cc2C(=O)N([C@H](C)CO)C[C@H]1C | 10 | -1[16.7 µM]
O=C(NCC[C@@H]1CC[C@@H](NC(=O)c2ccc3c(c2)OCO3)[C@@H](CO)O1)Nc1cc(F)ccc1F | 6 | 1[16.7 µM]
C[C@H]1CN([C@@H](C)CO)C(=O)c2cc(NC(=O)C3CC3)ccc2O[C@H]1CN(C)CC1CC1 | -8 | 14[16.7 µM]
O=C(C[C@H]1C=C[C@H](NC(=O)Nc2ccc(F)cc2)[C@@H](CO)O1)NCc1cccc(F)c1 | -12 | -2[16.7 µM]
Cn1cnc(S(=O)(=O)N[C@@H]2CC[C@H](CC(=O)Nc3ccccc3)O[C@@H]2CO)c1 | -9 | -4[16.7 µM]
CCCNC(=O)C[C@@H]1C[C@H]2c3cc(NC(=O)c4cccnc4)ccc3O[C@H]2[C@@H](CO)O1 | -14 | 11[16.7 µM]
CC(C)NC(=O)Nc1ccc2c(c1)C(=O)N([C@@H](C)CO)C[C@@H](C)[C@@H](CN(C)Cc1ccc3c(c1)OCO3)OCCCC[C@H](C)O2 | 17 | -23[16.7 µM]
C[C@@H]1CN([C@@H](C)CO)C(=O)Cc2cc(NS(=O)(=O)c3cccs3)ccc2O[C@H]1CN(C)S(=O)(=O)c1ccccc1 | 10 | -11[16.7 µM]
O=C(C[C@H]1C=C[C@@H](NS(=O)(=O)c2ccc(F)cc2)[C@H](CO)O1)N1CCN(c2ccccc2)CC1 | 1 | 7[16.7 µM]

Molecule | UUG fidelity | Env fusion inh
C[C@@H]1CN([C@@H](C)CO)C(=O)c2cc(NC(=O)CCC(F)(F)F)ccc2O[C@@H]1CN(C)C(=O)Nc1ccc2c(c1)OCO2 | 31 | 39[16.7 µM]
Cc1ccc(S(=O)(=O)N(C)C[C@@H]2Oc3ccc(NC(=O)Cc4cn(C)c5ccccc45)cc3CC(=O)N([C@@H](C)CO)C[C@@H]2C)cc1 | -12 | 37[16.7 µM]
C[C@H]1CN([C@@H](C)CO)C(=O)c2cccc(NC(=O)c3nc4ccccc4s3)c2O[C@H]1CN(C)S(=O)(=O)c1ccc(Cl)cc1 | 2 | 17[16.7 µM]
C[C@H](CO)N1C[C@H](C)[C@H](CN(C)Cc2ccc3c(c2)OCO3)Oc2c(NC(=O)C3CCOCC3)cccc2C1=O | -15 | -13[16.7 µM]
CCCN(C)C[C@@H]1Oc2cc(C#Cc3cccnc3)ccc2S(=O)(=O)N([C@@H](C)CO)C[C@@H]1C | -9 | 21[16.7 µM]
CNC[C@@H]1Oc2ccc(NC(=O)Cc3ccccc3)cc2C(=O)N([C@H](C)CO)C[C@@H]1C | -7 | 1[16.7 µM]
C[C@@H]1CN([C@@H](C)CO)C(=O)c2cc(N(C)C)ccc2O[C@@H](C)CCCCO[C@@H]1CN(C)C(=O)CCC(F)(F)F | 4 | -19[16.7 µM]
Cc1noc(C)c1NC(=O)N(C)C[C@H]1Oc2ncc(C#CCN(C)C)cc2C(=O)N([C@H](C)CO)C[C@@H]1C | 1 | 2[16.7 µM]
CCCC(=O)Nc1ccc2c(c1)OC[C@H](C)N(CC1CCCC1)C[C@H](C)[C@@H](OC)CN(C)C2=O | 10 | 34[16.7 µM]
O=C(C[C@H]1C[C@@H]2c3cc(NS(=O)(=O)c4ccc(F)cc4)ccc3O[C@@H]2[C@H](CO)O1)NCc1ccc(Cl)cc1 | 5 | 86*[16.7 µM]
C[C@H](CO)N1C[C@H](C)[C@H](CN(C)C(=O)Nc2cc(F)ccc2F)Oc2cc(-c3cccc(F)c3)ccc2S1(=O)=O | -5 | -5[16.7 µM]
Cc1noc(C)c1S(=O)(=O)N(C)C[C@H]1OCCCC[C@@H](C)Oc2ccc(NC(=O)CCC(F)(F)F)cc2C(=O)N([C@@H](C)CO)C[C@@H]1C | 16 | -3[16.7 µM]
C[C@H]1CN([C@@H](C)CO)S(=O)(=O)c2ccc(C#CC3CC3)cc2O[C@H]1CN(C)C | 7 | -15[16.7 µM]
C[C@@H]1CN([C@@H](C)CO)C(=O)c2cc(NC(=O)CCN3CCOCC3)ccc2O[C@H]1CN(C)C(=O)Nc1cccc2ccccc12 | 11 | 6[16.7 µM]
COc1ccc(S(=O)(=O)N(C)C[C@H]2Oc3ccc(NS(=O)(=O)c4c(C)noc4C)cc3C(=O)N([C@H](C)CO)C[C@H]2C)cc1 | 4 | -23[16.7 µM]

9 structures out of the list, ordered by heavy-atom count, lowest first.
Molecule | UUG fidelity | Env fusion inh
C[C@H]1CN([C@@H](C)CO)S(=O)(=O)c2ccc(C#CC3CC3)cc2O[C@H]1CN(C)C | 7 | -15[16.7 µM]
CNC[C@@H]1Oc2ccc(NC(=O)Cc3ccccc3)cc2C(=O)N([C@H](C)CO)C[C@@H]1C | -7 | 1[16.7 µM]
CCCC(=O)Nc1ccc2c(c1)OC[C@H](C)N(CC1CCCC1)C[C@H](C)[C@@H](OC)CN(C)C2=O | 10 | 34[16.7 µM]
Cc1noc(C)c1NC(=O)N(C)C[C@H]1Oc2ncc(C#CCN(C)C)cc2C(=O)N([C@H](C)CO)C[C@@H]1C | 1 | 2[16.7 µM]
O=C(C[C@H]1C[C@@H]2c3cc(NS(=O)(=O)c4ccc(F)cc4)ccc3O[C@@H]2[C@H](CO)O1)NCc1ccc(Cl)cc1 | 5 | 86*[16.7 µM]
C[C@H](CO)N1C[C@H](C)[C@H](CN(C)Cc2ccc3c(c2)OCO3)Oc2c(NC(=O)C3CCOCC3)cccc2C1=O | -15 | -13[16.7 µM]
C[C@@H]1CN([C@@H](C)CO)C(=O)c2cc(NC(=O)CCC(F)(F)F)ccc2O[C@@H]1CN(C)C(=O)Nc1ccc2c(c1)OCO2 | 31 | 39[16.7 µM]
C[C@@H]1CN([C@@H](C)CO)C(=O)c2cc(NC(=O)CCN3CCOCC3)ccc2O[C@H]1CN(C)C(=O)Nc1cccc2ccccc12 | 11 | 6[16.7 µM]
Cc1ccc(S(=O)(=O)N(C)C[C@@H]2Oc3ccc(NC(=O)Cc4cn(C)c5ccccc45)cc3CC(=O)N([C@@H](C)CO)C[C@@H]2C)cc1 | -12 | 37[16.7 µM]

Further compounds follow.
Molecule | UUG fidelity | Env fusion inh
C[C@@H]1CCCCO[C@H](CN(C)C(=O)c2ccccc2)[C@H](C)CN([C@@H](C)CO)C(=O)c2cc(NS(=O)(=O)c3cccs3)ccc2O1 | -1 | 8[16.7 µM]
C[C@@H]1CCCCO[C@@H](CN(C)C(=O)CCCN(C)C)[C@H](C)CN([C@@H](C)CO)C(=O)c2cc(NS(=O)(=O)c3ccc(Cl)cc3)ccc2O1 | 22 | -32[16.7 µM]
O=C(C[C@H]1C[C@@H]2c3cc(NC(=O)Nc4ccccc4)ccc3O[C@@H]2[C@@H](CO)O1)NC1CCCC1 | 15 | 22[16.7 µM]
C[C@H]1CN([C@@H](C)CO)C(=O)c2cc(C#Cc3cccnc3)cnc2O[C@@H]1CN(C)Cc1cccnc1 | 0 | -14[16.7 µM]
CO[C@@H]1CN(C)C(=O)c2ccc(NS(C)(=O)=O)cc2OC[C@H](C)N(C(=O)NC(C)C)C[C@H]1C | -21 | -4[16.7 µM]
COc1ccc(-c2cnc3c(c2)C(=O)N([C@@H](C)CO)C[C@H](C)[C@H](CN(C)C(=O)C2CCC2)O3)cc1 | 2 | -11[16.7 µM]
O=C(C[C@H]1C=C[C@H](NC(=O)c2ccc(F)cc2)[C@H](CO)O1)NCCc1ccncc1 | -11 | 19[16.7 µM]
C[C@H](CO)N1C[C@H](C)[C@H](CN(C)S(=O)(=O)c2ccc(Cl)cc2)Oc2ccc(NC(=O)Nc3ccc4c(c3)OCO4)cc2CC1=O | -5 | -206[16.7 µM]
C[C@@H]1CN([C@@H](C)CO)C(=O)c2cc(NC(=O)c3ccccc3)ccc2O[C@@H](C)CCCCO[C@H]1CN(C)Cc1ccc2c(c1)OCO2 | 8 | 4[16.7 µM]
C[C@@H]1CCCCO[C@@H](CN(C)S(=O)(=O)c2cn(C)cn2)[C@H](C)CN([C@@H](C)CO)C(=O)c2cc(NS(=O)(=O)c3ccccc3)ccc2O1 | 6 | -5[16.7 µM]
C[C@@H]1CCCCO[C@H](CN(C)Cc2ccc(C(=O)O)cc2)[C@@H](C)CN([C@@H](C)CO)C(=O)c2cc(NS(C)(=O)=O)ccc2O1 | 3 | 10[16.7 µM]
COc1ccccc1S(=O)(=O)N(C)C[C@@H]1Oc2cc(/C=C/c3ccccc3)ccc2S(=O)(=O)N([C@@H](C)CO)C[C@@H]1C | -14 | -6[16.7 µM]
C/C=C/c1cnc2c(c1)C(=O)N([C@@H](C)CO)C[C@@H](C)[C@@H](CN(C)C(=O)c1ccc3c(c1)OCO3)O2 | -5 | 8[16.7 µM]
C[C@H](CO)N1C[C@H](C)[C@H](CN(C)Cc2ccncc2)Oc2ncc(C#CCN(C)C)cc2C1=O | -20&-14 | -18&4[16.7 µM]
O=C(C[C@H]1CC[C@@H](NC(=O)C2CCC2)[C@@H](CO)O1)NCc1ccccc1Cl | -5 | -1[16.7 µM]

Molecule | UUG fidelity | Env fusion inh
C[C@H]1CN([C@@H](C)CO)C(=O)c2cc(-c3cccc(F)c3)cnc2O[C@@H]1CN(C)Cc1ccccc1 | -10 | 9[16.7 µM]
COc1ccccc1S(=O)(=O)N[C@@H]1CC[C@H](CCn2cc(C3CC3)nn2)O[C@H]1CO | 24 | 3[16.7 µM]
C[C@H]1CCCCO[C@H](CN(C)C(=O)Nc2ccc(C(F)(F)F)cc2)[C@@H](C)CN([C@@H](C)CO)C(=O)c2cc(NS(=O)(=O)c3ccc(Cl)cc3)ccc2O1 | 24 | 48[16.7 µM]
C[C@@H]1CN([C@@H](C)CO)S(=O)(=O)c2ccc(Br)cc2O[C@@H]1CN(C)Cc1ccc(C(=O)O)cc1 | -19 | -3[16.7 µM]
O=C(Nc1ccccc1)Nc1ccc2c(c1)[C@H]1C[C@@H](CC(=O)N3CCCCC3)O[C@@H](CO)[C@H]1O2 | 10 | -12[16.7 µM]
COc1ccc(NC(=O)Nc2ccc3c(c2)C(=O)N([C@@H](C)CO)C[C@H](C)[C@H](CN(C)Cc2ccc(Oc4ccccc4)cc2)O3)cc1 | -15 | -23[16.7 µM]
C[C@@H]1CN([C@@H](C)CO)C(=O)Cc2cc(NC(=O)Nc3ccc(C(F)(F)F)cc3)ccc2O[C@@H]1CN(C)Cc1ccc(Oc2ccccc2)cc1 | 42 | 5[16.7 µM]
CCCC#Cc1cnc2c(c1)C(=O)N([C@H](C)CO)C[C@H](C)[C@@H](CN(C)C(=O)c1cccnc1)O2 | -3 | -11[16.7 µM]
O=C(N[C@H]1CC[C@@H](CC(=O)N2CCOCC2)O[C@H]1CO)c1ccc2c(c1)OCO2 | -13 | 0[16.7 µM]
CO[C@H]1CN(C)C(=O)c2cc(NC(=O)C3CCCCC3)ccc2OC[C@@H](C)NC[C@@H]1C | 4 | -3[16.7 µM]
O=C(C[C@@H]1C[C@H]2c3cc(NS(=O)(=O)c4ccc(F)cc4)ccc3O[C@H]2[C@@H](CO)O1)NCC1CC1 | -14 | 7[16.7 µM]
CCCC#Cc1ccc2c(c1)O[C@H](CN(C)C(=O)CC)[C@H](C)CN([C@@H](C)CO)S2(=O)=O | -4 | -2[16.7 µM]
CNC(=O)C[C@@H]1CC[C@H]2[C@@H](COc3ccc(NC(=O)c4cscn4)cc3C(=O)N2C)O1 | -10 | -6[16.7 µM]
O=C(C[C@H]1C[C@@H]2c3cc(NC(=O)Nc4ccc(C(F)(F)F)cc4)ccc3O[C@@H]2[C@H](CO)O1)NCCc1ccccc1 | -7 | 24[16.7 µM]
C[C@@H]1CN([C@H](C)CO)C(=O)c2cc(NS(=O)(=O)c3ccccc3)ccc2O[C@@H](C)CCCCO[C@@H]1CN(C)S(=O)(=O)c1cn(C)cn1 | -2 | 8[16.7 µM]

Molecule | UUG fidelity | Env fusion inh
COc1ccc(NC(=O)Nc2ccc3c(c2)C(=O)N([C@H](C)CO)C[C@@H](C)[C@@H](CN(C)Cc2ccc(C(=O)O)cc2)OCCCC[C@@H](C)O3)cc1 | 8 | -12[16.7 µM]
C[C@@H]1CCCCO[C@@H](CN(C)C(=O)c2ccncc2)[C@@H](C)CN([C@H](C)CO)C(=O)c2cc(NS(=O)(=O)c3cccs3)ccc2O1 | 1 | -3[16.7 µM]
Cc1noc(C)c1S(=O)(=O)Nc1ccc2c(c1)C(=O)N([C@H](C)CO)C[C@H](C)[C@@H](CN(C)CC1CCCCC1)OCCCC[C@@H](C)O2 | 8 | -18[16.7 µM]
COc1ccc(NC(=O)Nc2ccc3c(c2)[C@@H]2C[C@H](CC(=O)NCc4ccc5c(c4)OCO5)O[C@H](CO)[C@@H]2O3)cc1 | 8 | 1[16.7 µM]
COc1ccc(S(=O)(=O)Nc2ccc3c(c2)CC(=O)N([C@H](C)CO)C[C@@H](C)[C@H](CN(C)S(=O)(=O)c2ccc(F)cc2)O3)cc1 | 0 | -15[16.7 µM]
